ALR H2O2 inh: inhibitors of human sulfhydryl oxidase ALR. purified ALR, DTT oxidation, H2O2 HRP-luminol luminescence. inhibition, % (test concentration not listed). AID 485317. hit rate 3.8% among 290,000;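 active = mean and each replicate at 75% or more; inconclusive = only one of the two met; inactive = neither met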;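 note: stock transfer was 7.5 nL into about 7.5 µL; 0% = neutral wells and 100% = wells with inactivated enzyme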
Target sequence (P55789 whole entry, looked up): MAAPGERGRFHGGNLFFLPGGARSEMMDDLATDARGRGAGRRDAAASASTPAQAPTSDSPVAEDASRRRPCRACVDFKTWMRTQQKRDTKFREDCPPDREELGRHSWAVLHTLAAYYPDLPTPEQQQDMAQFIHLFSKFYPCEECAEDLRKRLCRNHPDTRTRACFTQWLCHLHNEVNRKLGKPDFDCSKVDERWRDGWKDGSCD
Beta2AR agonist: activates human beta-2 adrenergic receptor causing internalization | P07550 | Am2.2-beta2AR cells, FAP receptor internalization, flow cytometry; reference of the scale not given here | response, % (no concentration beside the values) | hit rate 0.43% among 340,000;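 active = response above a set limit, near 3 SD of response in nonfluorescent compounds, cut at about 42% in these data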;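 note: stock transfer was 100 nL into about 11 µL; a reference agonist was the positive control; negative values mostly stem from fluorescent compounds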
Target sequence (P07550 whole entry, looked up): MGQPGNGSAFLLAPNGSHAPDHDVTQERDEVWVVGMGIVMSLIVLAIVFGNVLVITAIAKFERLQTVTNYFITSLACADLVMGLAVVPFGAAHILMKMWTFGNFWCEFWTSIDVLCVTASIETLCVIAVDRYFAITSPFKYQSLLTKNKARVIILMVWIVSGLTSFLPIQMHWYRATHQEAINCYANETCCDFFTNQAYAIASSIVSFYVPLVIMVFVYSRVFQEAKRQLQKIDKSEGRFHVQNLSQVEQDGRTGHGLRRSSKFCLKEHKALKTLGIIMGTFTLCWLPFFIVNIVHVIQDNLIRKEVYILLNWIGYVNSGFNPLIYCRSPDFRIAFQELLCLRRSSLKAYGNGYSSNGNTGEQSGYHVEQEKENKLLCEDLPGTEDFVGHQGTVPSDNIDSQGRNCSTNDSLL
LANA-H2B inh: blocks KSHV LANA binding to histone H2A/H2B. Q9QR71. cell-free LANA-H2A/H2B peptide, fluorescence polarization. inhibition, % (test concentration not listed). hit rate 0.6% among 320,000. AID 2629; in the data active = inhibition mostly above about 10%, no sharp cut-off; inactive = mostly below about 6.7%;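 note: stock transfer was 7.5 nL into about 10 µL; 0% = median of vehicle wells and 100% = median of positive control wells; one replicate is shown; the record names a cut of 25% in any replicate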
HNF4A DNA FP: change in binding of human HNF4 alpha to DNA | P41235 | AID 1224865 | activity change, % at 10 µM | HNF4a-FITC DNA binding, fluorescence polarization, 1 h | hit rate 0.3% among 360,000; in the data active = activity change above about 30%, passing the limit was not always enough;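 note: controls were the assay level and a saturating level of protein; the project sought stronger binding though the title names inhibitors; some compounds called inactive have numbers as strong as hits; positive values seem to mean higher polarization but the record does not say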
Target sequence (P41235 whole entry, looked up): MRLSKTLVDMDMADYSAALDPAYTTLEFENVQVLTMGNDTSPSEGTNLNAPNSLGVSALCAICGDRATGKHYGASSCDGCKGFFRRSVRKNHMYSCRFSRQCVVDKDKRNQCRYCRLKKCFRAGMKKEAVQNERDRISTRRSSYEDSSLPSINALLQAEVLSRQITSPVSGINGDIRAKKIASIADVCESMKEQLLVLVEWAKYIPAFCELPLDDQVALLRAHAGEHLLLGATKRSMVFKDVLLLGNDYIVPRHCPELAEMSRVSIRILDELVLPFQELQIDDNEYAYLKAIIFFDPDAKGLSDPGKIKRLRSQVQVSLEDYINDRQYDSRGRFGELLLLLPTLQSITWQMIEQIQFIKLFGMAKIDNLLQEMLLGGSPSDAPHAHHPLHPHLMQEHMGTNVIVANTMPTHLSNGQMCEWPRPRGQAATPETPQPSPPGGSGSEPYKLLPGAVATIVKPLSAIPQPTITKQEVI
Vif TR-FRET: inhibitors of Vif binding to APOBEC3G peptide, primary screen, biochemical, TR-FRET, GST-Vif 1-94, biotin-A3G peptide, dose response retest (AID 1117319). TR-FRET GST-Vif / biotin-A3G peptide binding; higher % means a stronger effect; test concentration not given here; strong numbers were not always called active. inhibition, %, or IC50 in µM where a hit was titrated. hit rate 0.57% among 260,000;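 active = above the screen mean plus three standard deviations and confirmed in dose response; inconclusive = results disagree or hit not tested in dose response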;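 note: Vif residues 1-94 fused to GST binding biotinylated APOBEC3G peptide 110-148; 0% = full assay without inhibitor and 100% = GST in place of GST-Vif; retest series ran down from 100 µM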
RanGTP-Imp inh: disruptors of Ran-importin-beta complex formation – biochemical, FRET, CFP-Ran, YFP-importin-beta, homogeneous, primary screen; hit rate 1.1% among 300,000; cell-free CFP-Ran/YFP-importin-beta FRET ratio; inhibition, % (concentration not given with the values);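 active = most replicates above 15%; inconclusive = exactly half above 15%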;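 note: 0% = DMSO wells and 100% = Ran loaded with GDP instead of GTP; wells of about 40 µL received 100 nL stock; the first replicate is given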
Calb FLC: affects C. albicans growth with fluconazole; C. albicans CaCi-2 (fluconazole-resistant clinical isolate) + fluconazole, Alamar Blue growth, 48 h; growth inhibition, % (concentration not given with the values); hit rate 0.57% among 300,000; AID 1979;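 active = most replicates above 75%; inconclusive = exactly half above 75%; inactive = most below 75%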;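 note: all wells also contain fluconazole at 8 µg/ml as a sub-toxic cotreatment; 0% = median of DMSO wells and 100% = median of geldanamycin control wells; wells of about 8 µL received 7.5 nL stock; the first replicate is given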
* marks the source's active call; other numbers are inactive results; i = inactive; ? = inconclusive; . = not tested or not shown; & = joins results of further samples.

SMILES	ALR H2O2 inh	Beta2AR agonist	LANA-H2B inh	HNF4A DNA FP	Vif TR-FRET	RanGTP-Imp inh	Calb FLC
O=C(CSc1ncccn1)NCCc1ccccc1	-3	2	6.0	0.6	14%	3.1	0
COc1ccc(S(=O)(=O)Nc2ccc3cn[nH]c3c2)cc1C	-54	-4	-3.7	-1.0	-6%	-0.4	-8
Cc1cc(C(F)F)nn1CC(=O)NCc1ccc(Cl)cc1Cl	2	12	0.8	1.7	-4%	-0.4	-7
C#CCNC(=O)C1=C[C@H](c2ccc3c(c2)OCO3)C[C@H](OCCCCO)O1	3	.	-0.5	.	.	-2.4	-7
O=C(CNC(=O)c1cccs1)OCc1ccc(Cl)cc1	-15	4	-2.7	0.9	.	-1.6	0
O=C1N(c2ccccc2)C(c2ccc(Cl)cc2)N2CCCN12 (centres undefined)	.	3	1.6	0.6	6%	-2.0	?
CCn1c(SCC(=O)Nc2ccc(F)cc2F)nc2c(c1=O)SCC2	0	-2	0.3	3.1	.	2.5	3
CCOC(=O)c1ccc(NC(=O)C2CCC(CNc3c(N4CCOCC4)c(=O)c3=O)CC2)cc1 (centres undefined)	-1	-13	2.4	3.1	.	0.1	-11
Cc1ccc2c(C)nc(Nc3ncc4c(n3)CCCC4=O)nc2c1	-2	.	3.1	.	.	-3.3	-6
CC(=O)Nc1cccc(C(=O)/C=C/c2cccs2)c1	97*	-1	-3.7	-1.4	.	?	-2
CCOc1ccccc1NC(=O)Cc1ccccc1OC	2	5	-1.2	1.6	6%	-1.1	2
N#Cc1c(-c2ccc(Cl)cc2)cc(-c2ccccc2)nc1SCC(=O)O	42	0	-0.1	1.8	-4%	-2.1	88*
Cc1cc(C)n2nnnc2c1C#N	.	0	5.7	-2.3	-5%	-1.2	-4
Cc1ccc(CNC(=O)C(=O)NCC2CCCN2S(=O)(=O)c2cccs2)cc1 (centres undefined)	-28	-2	1.3	-1.8	.	0.2	-4
Cc1nc2c(C(=O)NCCC3=CCCCC3)c[nH]n2c(=O)c1Cl	24	4	-3.3	-3.1	?	?	33
O=C1Nc2ccc(C(=O)O)c(O)c2C1=O	.	0	.	-4.3	12%	.	.
CCOC(=O)Cn1c(=O)oc2cc(S(=O)(=O)N(CCN(C)C)Cc3ccccc3)ccc21	1	7	0.7	-2.8	11%&-14%	2.6	5
O=C(COC(=O)CN1C(=O)NC2(CCCC2)C1=O)NCc1ccc(Cl)cc1Cl	.	-2	1.5	2.5	?	.	.
C=CCOC(=O)C1=C(C)NC(SCC(=O)OCC)=C(C#N)C1c1ccc(C)cc1 (centres undefined)	-8	8	0.0	-5.5	2%	4.6	12
N#Cc1cccc(S(=O)(=O)NCCOc2ccccc2F)c1	-8	1	3.3	-2.0	4%	.	.
Cc1cc(=O)[nH]c(-c2cccnc2)n1	-5	3	2.3	3.8	?	22*	4
Cc1cccc(NC(=O)CSc2nnc(-c3ccco3)c(-c3ccco3)n2)c1C	.	-3	0.2	-34	4.3µM*	-2.4	2
Cc1ccc(-n2ncc3c2CC(C)(C)CC3NC(=O)CCCN2CCCCC2=O)cc1 (centres undefined)	1	2	0.8	-9.4	.	11	-2
NC(=O)c1cc2cc(Cc3ccccc3Cl)ccc2oc1=O	-2	2	0.9	1.8	-14%	-1.2	30
CCOC(=O)c1cccc(NC(=O)C2CCCN(S(=O)(=O)c3c(C)nn(C)c3C)C2)c1 (centres undefined)	-2	-7	-0.4	4.1	4%	.	.

The results go on:
SMILES	ALR H2O2 inh	Beta2AR agonist	LANA-H2B inh	HNF4A DNA FP	Vif TR-FRET	RanGTP-Imp inh	Calb FLC
CCCOc1ccc(N2C(=O)CC(N(Cc3ccco3)C(C)=O)C2=O)cc1 (centres undefined)	-11	-2	-0.4	-1.5	-2%	-3.6	3
COc1ccc(N(Cc2cc3ccc(C)cc3[nH]c2=O)C(=O)c2ccco2)cc1	-8	5	-2.0	0.0	-10%	1.9	-6
O=C(CN1CCN(Cc2ccc(Cl)cc2)CC1)N/N=C/c1ccccc1F	2	-6	3.2	1.6	?	1.3	-6
Cc1ccc2cc(CN(Cc3ccco3)C(=O)c3ccccc3)c(=O)[nH]c2c1C	-2	-4	-0.7	-2.0	-1%	0.1	5
CCOC(=O)CC(NCc1ccc(OC)c(OCC)c1)c1ccc(C)cc1 (centres undefined)	6	-4	1.2	-3.7	-2%	-4.4	-1
CCOc1nc2cnccc2n(CC(=O)Nc2ccc(C)c(C)c2)c1=O	-2	-5	-2.5	2.2	.	-1.2	-23
CN(CCc1ccccn1)C(=O)c1ccc(OC(F)(F)F)cc1	-1	5	-3.7	-7.1	4%	1.6	14
O=C(O)CCc1ccc(-c2ccccc2)n1Cc1ccco1	29	3	-2.1	-1.5	1%	1.4	9
CCC(=O)Nc1nnc(SCc2ccccc2F)s1	-6	-1	2.7	0.9	-1%	.	-12
c1ccc(COc2ccc(CNn3cnnc3)cc2)cc1	-4	-8	3.3	-0.8	3%	0.4	20
O=C(NCCOc1ccccc1)c1cc([N+](=O)[O-])ccc1N1CCOCC1	0	-4	-4.9	0.2	6%	.	.
CCCCOc1ccc(CSCCNC(=S)Nc2ccccc2)cc1	-1	-9	0.3	-2.1	-1%	-2.1	15
COc1ccc(/C=N/NC(=O)c2c(-c3ccccc3)noc2C)cc1[N+](=O)[O-]	-2	3	-2.3	5.0	-9%	2.6	-3
Cc1ccc(S(=O)(=O)c2nc(-c3ccco3)oc2NCC2CCCO2)cc1 (centres undefined)	19	-6	-0.5	0.6	-2%	.	.
CCN(C(=O)c1ccc(Cl)c(S(=O)(=O)Nc2c(C)n(C)n(-c3ccccc3)c2=O)c1)c1ccccc1	3	-2	-0.7	2.9	.	.	.
Cc1cc(Cl)ccc1OCCCC(=O)NC1CCN(C)CC1	-5	3	0.1	-3.0	-2%	-0.7	-10
COc1ccc(N2CCN(C(=O)CS(=O)Cc3nc(-c4ccc(OC)c(OC)c4)oc3C)CC2)cc1 (centres undefined)	-2	-5	16*	5.3	.	0.6	9
COCCn1c(=NC(=O)c2sc3ccccc3c2Cl)sc2cc(S(N)(=O)=O)ccc21	-21	23	2.3	2.9	-2%	0.0	-2
COc1ccc(CCNC(=O)C2(C)CCC(=O)N2CCC(C)C)cc1OC (centres undefined)	.	-3	-6.9	-1.8	-3%	1.3	-3
COc1ccc(-c2cc(CCCC(=O)N3CCN(c4ccc(OC)cc4)CC3)no2)cc1	.	3	-0.6	1.6	-5%	1.3	2
CN(CC(=O)Nn1cnnc1)S(=O)(=O)c1ccccc1	-5	6	-3.7	3.9	-3%	-1.8	-12
O=C(Nc1ccc2c(c1)OCCO2)c1ccc(Br)s1	3	-8	i	2.0	-6%	1.4	-27
O=C(CC(=O)Nc1cccc(F)c1)Nc1cccc(F)c1	-6	1	-4.4	3.2	.	-1.1	-4
CCn1cc(CN2CCC(n3nccc3NC(=O)c3ccc(OC)cc3)CC2)cn1	-7	2	-2.6	1.7	.	1.1	-3
CCOc1cc(NC(=O)c2ccco2)c(OCC)cc1NC(=O)COc1ccccc1C	-91	-6	2.3	0.5	.	1.8	8

Next part
SMILES	ALR H2O2 inh	Beta2AR agonist	LANA-H2B inh	HNF4A DNA FP	Vif TR-FRET	RanGTP-Imp inh	Calb FLC
Cc1cc(C)nc(SCc2ccc([N+](=O)[O-])cc2)n1	0	-18	7.2	-0.3	?	.	-39
Nc1nc(Sc2ccc([N+](=O)[O-])cc2[N+](=O)[O-])n[nH]1	-5	-5	2.7	3.0	5%	-3.0	-2
O=C1CSC(c2ccccc2O)N1Cc1ccccc1 (centres undefined)	9	-2	2.0	0.3	1%	0.1	-3
Cc1onc(NC(=O)c2ccc(Cl)cc2Cl)c1Br	-4	4	-2.3	-2.8	-4%	0.9	-7
Cc1c(C(c2ccccc2)c2c(C)n(C)n(-c3ccccc3)c2=O)c(=O)n(-c2ccccc2)n1C	-31	-13	-12	-1.3	-11%	0.6	6
CC(=O)Oc1ccc(C(=O)[C@H]2[C@H]3C(=O)N(c4ccc(C)cc4C)C(=O)[C@H]3[C@@H]3C=CC=NN32)cc1	-12	5	0.8	20	19%	0.1	-13
CC(C)C(C(=O)OCC(=O)c1ccccc1)N1C(=O)C2C3C=CC(C3)C2C1=O (centres undefined)	-2	10	1.8	-1.1	5%	2.0	-10
Cc1nn(-c2ccc(N3CCCCC3)nn2)c(C)c1CCC(=O)Nc1ccc(F)c(F)c1	-7	-4	5.5	-1.0	.	0.6	-2
Cc1nnc(SCC(=O)c2c(N)n(C)c(=O)n(C)c2=O)[nH]c1=O	1	11	-2.2	-0.5	-2%	1.2	3
c1ccc(CSc2ccc(-c3cccnc3)nn2)nc1	-34	-3	-1.2	1.5	1%	3.8	14
Cc1cccc(C(=O)OC(C)C(=O)Nc2ccc(S(=O)(=O)Nc3ncccn3)cc2)c1C (centres undefined)	3	2	3.0	0.3	-1%	.	.
Cc1ccccc1C1CCCN(Cc2nc(CC3CC3)no2)C1 (centres undefined)	.	5	2.6	0.2	-6%	4.8	-14
COc1ccc(CNC(=O)c2ccc(Cn3nc(C)cc3C)o2)cc1	-6	-4	-2.9	-3.4	.	-0.4	4
COC(=O)c1ccc(OC(=O)c2ccncc2)cc1O	5	2	-2.4	-2.1	-8%	-0.4	-4
Nc1c(C(=O)Nc2ccccc2)sc2nc3c(c(-c4ccco4)c12)CCCC3	.	7	1.7	3.0	0%	-34	14
CCCc1nnc2c(N(C)S(=O)(=O)c3ccccc3)nc3ccccc3n12	-17	-15	-1.4	-0.7	-12%	?	-6
CCOc1cc(NC(=S)NCC2CCCO2)c(OCC)cc1NC(=O)C1CC1 (centres undefined)	-44	-9	-2.3	3.2	2%	5.4	-3
O=C(COC(=O)C(O)C(O)C(=O)OCC(=O)c1ccc(C(F)(F)F)cc1)c1ccc(C(F)(F)F)cc1 (centres undefined)	-11	-1	-2.3	4.4	?	1.1	-8
Cc1c(Br)cc(C(=O)NCc2ccco2)c(C)c1C	98*	1	11	-9.2	9%	2.6	2
Cc1ccc(NC(=O)COC(=O)c2ccc(Cl)nc2)cc1S(=O)(=O)N1CCCCC1	0	-1	2.1	2.7	.	.	.
Cc1ccc(C(=O)NCCCNC(=O)c2ccco2)cc1	-13	-3	-1.1	-2.0	.	-1.6	-2
COc1ccccc1NS(=O)(=O)c1ccc(OC)c([N+](=O)[O-])c1	1	7	0.0	0.6	-11%	-2.2	2
Cc1ccc(NC(=O)[C@H](Cc2ccccc2)NC(=O)[C@@H]2Cc3ccccc3CN2)c(C)c1	-9	11	-3.2	2.2	.	0.9	-3
O=C(/C=C/Nc1ccc(S(=O)(=O)Nc2ncccn2)cc1)c1ccc(Cl)c(Cl)c1	-1	16	-0.2	5.1	.	4.7	-10
O=C(CCCSc1ccccc1)Nc1cccc(CO)c1	.	3	-3.8	0.0	.	1.6	-5

Additional records
SMILES	ALR H2O2 inh	Beta2AR agonist	LANA-H2B inh	HNF4A DNA FP	Vif TR-FRET	RanGTP-Imp inh	Calb FLC
CC(=O)Nc1nc2cc(C(N)=O)ccc2s1	-3	12	5.8	-1.5	.	.	.
CCN(CC)CC#CCC(C)(c1ccccc1)c1ccccc1	-2	1	2.4	2.0	-1%	?	-2
O=C(NCCc1ccccc1)C(=O)c1c[nH]c2ccccc12	-7	3	-2.3	10.0	.	-0.6	-3
Cn1nnnc1SCC(=O)Nc1cccc(S(=O)(=O)N2CCCC2)c1	.	3	-6.5	5.8	-7%	5.5	3
Cc1ccc(C)c(NS(=O)(=O)c2c(C)nc3sccn3c2=O)c1	-5	1	-0.1	0.6	.	4.2	-8
CCOc1ccc(Cc2nnc(SCC(=O)Nc3ccc(OC)cc3)n(N)c2=O)cc1	.	-1	-3.3	-0.6	-5%	3.3	0
Cn1/c(=N/NC(=O)c2ccccc2Br)sc2ccccc21	6	3	-3.4	3.1	-1%	1.2	-4
CCCCCOc1ccc(CSC(=N)N)cc1[N+](=O)[O-]	99*	27	-4.0	1.8	3%	4.4	19

Source: PubChem (several laboratories)
